# GIV Gai3 FP – inhibitors of GIV peptide binding to Galpha-i3, primary screen, biochemical, fluorescence polarization, FITC-GIV GBA peptide, rat Galphai3. Guanine nucleotide-binding protein G(i) subunit alpha-3 (Rattus norvegicus), P08753. 90 min; hits give low values; scaled: aluminum fluoride 0%, vehicle 100%. percent of control (FP), % (no concentration beside the values). 0.42% of 210,000 active. AID 1224905, 2016;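 active means replicate mean at 85% of control or lower, very high polarization wells dropped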;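 further: wells of about 15 µL received 100 nL stock; the first replicate is given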
# Target sequence (P08753 whole entry, looked up): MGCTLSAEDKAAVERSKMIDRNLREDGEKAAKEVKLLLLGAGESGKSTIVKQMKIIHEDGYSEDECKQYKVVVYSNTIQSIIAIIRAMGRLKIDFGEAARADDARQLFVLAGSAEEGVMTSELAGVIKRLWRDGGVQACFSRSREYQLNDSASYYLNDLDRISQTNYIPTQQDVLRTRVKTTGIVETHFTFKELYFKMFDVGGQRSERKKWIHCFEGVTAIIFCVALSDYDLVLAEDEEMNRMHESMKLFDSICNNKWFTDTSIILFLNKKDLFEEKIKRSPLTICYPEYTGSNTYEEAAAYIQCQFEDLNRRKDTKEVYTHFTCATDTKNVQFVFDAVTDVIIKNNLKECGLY
# Sa growth 42C – S. aureus growth inhibition at 42 and 30 °C, primary screen, LtaS inhibitor project, RN4220, two temperatures | OD600, 20 h, 42 °C; hits give low values | relative growth, % (no concentration beside the values) | 0.53% of 170,000 active | AID 720641, 2013;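 active means growth at 42 °C up to 50% and 20 or more points under that at 30 °C, or under 10% at both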;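 further: 300 nL library stock went into each well; scaled to the means of positive and negative controls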
# HCMV UL50-53 inh – inhibitors of HCMV UL50-UL53 interaction, biochemical, HTRF; 0.15% of 190,000 active; AID 1918969, 2023; normalized percent inhibition; HCMV UL50-UL53 nuclear egress complex (human cytomegalovirus); inhibition, % (concentration not given with the values);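 active means both replicates at 50% or more, plus weaker picks with an unusually low signal ratio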;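 further: stock transfer was 100 nL into about 20 µL; 0% = negative control wells and 100% = wells with untagged competitor protein; inactives centre near -12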
# Sa growth 42C second temp – also measured in Sa growth 42C; calls as there; relative growth, %; measured here: growth at 30 °C;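 optical density after 20 h as mean of two plates; 100% = untreated growth and lower means inhibition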
# Active calls of the source: *; · = no result given; & = joins results of further samples.
compound | GIV Gai3 FP | Sa growth 42C | Sa growth 42C second temp | HCMV UL50-53 inh
Cc1ccccc1CN1C(=O)c2ccccc2S(=O)c2ccc(C(=O)NCc3ccc(Cl)cc3)cc21 (stereo unspecified) | 105 | 155 | 105 | ·
O=c1c(-c2cnn(-c3ccccc3)c2)coc2c3c(ccc12)OCO3 | 104 | 118 | 41 | -3
CN(Cc1ccccc1)C(=O)c1ccc2c(c1)N(Cc1ccccc1F)C(=O)c1ccccc1S2(=O)=O | 105 | 111 | 96 | -16
O=C(O)c1ccccc1OCC1CCCO1 (stereo unspecified) | · | 91 | 88 | -21
Cc1cc(NC(=O)CSc2cn(Cc3ccc(F)cc3)c3ccccc23)no1 | 106 | 97 | 91 | ·
COc1ccccc1NC(=O)COc1nsnc1N1CCOCC1 | · | 92 | 88 | -3
Cc1ccc(S(=O)(=O)N2CCN(CCC(=O)O)CC2)cc1 | 96 | 96 | 105 | -6
CC1=C(C(=O)Nc2ccc(C)cn2)C(c2cc([N+](=O)[O-])ccc2Cl)C2=C(CC(C)(C)CC2=O)N1 (stereo unspecified) | 104 | · | · | -42

# Exported field by field: 3 of the compounds above
Cc1ccc(S(=O)(=O)N2CCN(CCC(=O)O)CC2)cc1
  GIV Gai3 FP: 96
  Sa growth 42C: 96
  Sa growth 42C second temp: 105
  HCMV UL50-53 inh: -6
CN(Cc1ccccc1)C(=O)c1ccc2c(c1)N(Cc1ccccc1F)C(=O)c1ccccc1S2(=O)=O
  GIV Gai3 FP: 105
  Sa growth 42C: 111
  Sa growth 42C second temp: 96
  HCMV UL50-53 inh: -16
CC1=C(C(=O)Nc2ccc(C)cn2)C(c2cc([N+](=O)[O-])ccc2Cl)C2=C(CC(C)(C)CC2=O)N1 (stereo unspecified)
  GIV Gai3 FP: 104
  Sa growth 42C: ·
  Sa growth 42C second temp: ·
  HCMV UL50-53 inh: -42

# Other results follow.
compound | GIV Gai3 FP | Sa growth 42C | Sa growth 42C second temp | HCMV UL50-53 inh
Cc1c(N(C)C)c(=O)n(-c2ccccc2)n1C | · | 86&76 | 83&100 | -46&-6&-15&10
CC(=O)N/C(=C\c1sc2ccccc2c1C)C(=O)O | 116 | 108 | 93 | -42
CSc1nc2ccc(NC(=O)C(C)(C)C)cc2s1 | · | 101 | 96 | -6
CC1Cc2cc(S(=O)(=O)NCC3CCC(C(=O)Nc4ccccc4)CC3)ccc2N1C(=O)C1CC1 (stereo unspecified) | 106 | 90 | 77 | ·
O=C(COc1ccc(Cl)cc1)N1CCNCC1 | · | 112 | 92 | -4
CC(Oc1ccc(Cl)cc1Cl)C(=O)NCCC1=CCCCC1 (stereo unspecified) | · | 88 | 103 | -3
CC1CCN(S(=O)(=O)c2c[nH]c(=O)[nH]c2=O)CC1 | 106 | 102 | 98 | -8
NNC(=O)c1ccc(CN2CCCCC2)o1 | 103 | 93 | 96 | ·
CC1CCCC(NCC(=O)Nc2ccc(C(N)=O)cc2)C1C (stereo unspecified) | · | 92 | 100 | -13
COC(=O)C1=C(N)OC2=C(C(=O)CC(c3ccccc3)C2)C1c1ccc(Cl)cc1Cl (stereo unspecified) | 105 | · | · | -1
COc1ccc(NC(=S)NC(C)(C)C)cc1OC | 104 | 94 | 89 | 9
O=c1[nH]c2ccccc2n1Cc1ccc(Cl)cc1 | 108 | 96 | 87 | -16
COc1ccc2c(CNCC(C)c3ccccc3)c(C(=O)O)n(Cc3ccc(F)cc3Cl)c2c1 (stereo unspecified) | 104 | 74 | 96 | ·
CCN(C(=O)CSc1nc2ccccc2c2nc3ccccc3n12)c1cccc(C)c1 | 102 | 99 | 97 | ·
COC(=O)c1ncn2c1C(=O)N(Cc1ccc(N(C)C)cc1)C(C)(C(=O)NC1CCCCC1)C2 (stereo unspecified) | 102 | · | · | -5
Cc1cccc(N2CCN(C(=O)C3CCN(C(=O)c4cc5sccc5n4C)CC3)CC2C)c1 (stereo unspecified) | 103 | 99 | 50 | -21
CCCN1CCN(CCCNC(=O)c2ccc3c(c2)NC(=O)c2ccccc2S3)CC1 | 105 | 107 | 91 | -3
CCCNC(=S)Nc1ccccc1Br | · | 77 | 49 | 9
COC(=O)c1cc(C)sc1NC(=O)C1CC(=O)NN1C (stereo unspecified) | 106 | 82 | 76 | -29
Cc1ccc(S(=O)(=O)Nc2nc3ccccc3nc2Nc2ccc(S(=O)(=O)Nc3onc(C)c3C)cc2)cc1 | · | 66 | 76 | -4
Cn1c(SCC(=O)N2CCCc3ccccc32)ncc(C(=O)Nc2ccc(F)cc2)c1=O | 94 | 109 | 84 | ·
Cc1ccccc1NC(=O)C1CCN(S(=O)(=O)c2ccccc2)CC1 | 98 | 90 | 86 | ·
CCOc1ccc(S(=O)(=O)Nc2cccc(OC)c2)c2cccnc12 | 93 | 81 | 90 | -7
Nc1ccc2oc(=O)c(-c3ccccc3)cc2c1 | 110 | 111 | 92 | ·
COc1ccc(Cl)cc1NC(=O)Cn1ccn(Cc2ccc(C)cc2)c(=O)c1=O | 95 | 83 | 87 | 2
CN(CCNC(=O)CCSCc1cnn(-c2ccccc2)c1-n1cccc1)Cc1ccccc1 | 100 | · | · | -18
CC(C)c1cc(C(=O)N2CCCCC2C)no1 (stereo unspecified) | 100 | · | · | -26
Cc1nc2ccccc2nc1CSc1nnc(Cc2ccccc2)n1-c1ccccc1 | · | 87 | 79 | -15
CCOc1ccc(NC(=O)N2CCN(C(=O)c3nsc4ccccc34)CC2)cc1 | 105 | 101 | 87 | ·
Fc1ccc(C2CN3C(=N2)C=Cc2ccccc23)cc1 (stereo unspecified) | 106 | 93 | 89 | -9
CC(C)n1cnc2nc(CSc3ccccc3NC(=O)C(C)(C)C)cc(=O)n21 | 97 | · | · | -22
CN(CCC#N)C(=O)Cc1ccc(F)cc1 | · | 105 | 101 | 10

# Rewritten field by field: entries from further up
Cc1nc2ccccc2nc1CSc1nnc(Cc2ccccc2)n1-c1ccccc1
  GIV Gai3 FP = ·	Sa growth 42C = 87	Sa growth 42C second temp = 79	HCMV UL50-53 inh = -15
CCOc1ccc(NC(=O)N2CCN(C(=O)c3nsc4ccccc34)CC2)cc1
  GIV Gai3 FP = 105	Sa growth 42C = 101	Sa growth 42C second temp = 87	HCMV UL50-53 inh = ·
Fc1ccc(C2CN3C(=N2)C=Cc2ccccc23)cc1 (stereo unspecified)
  GIV Gai3 FP = 106	Sa growth 42C = 93	Sa growth 42C second temp = 89	HCMV UL50-53 inh = -9

# Additional compounds
compound | GIV Gai3 FP | Sa growth 42C | Sa growth 42C second temp | HCMV UL50-53 inh
Cc1ccc(CN2CCN(C3CCN(S(=O)(=O)c4cccc5nsnc45)CC3)C(=O)C2=O)cc1 | 98 | · | · | -58
Cc1cc2ccccn2c1CCC#N | · | 92 | 62 | -91
Cc1ccc(F)cc1NC(=O)CCc1c(C)nn(-c2ccc(N3CCCC3)nn2)c1C | 94 | 89 | 88 | ·
CSc1nc(C)c(-c2cc3ccccn3c2)cc1C#N | · | 116 | 94 | 5
COc1cccc(C(=O)Nc2cccc(OCc3cc(=O)n4c5c(sc4n3)CCCC5)c2)c1 | 110 | 106 | 89 | -19
COc1cccc(NC(=O)c2ccnc(N3CCC(C(=O)Nc4ccc(C)c(Cl)c4)CC3)c2)c1 | 102 | · | · | -6
O=c1[nH]cnc2c1sc1nc(N3CCOCC3)c3c(c12)CCCC3 | 104 | 96 | 108 | ·
Cc1c(C(=O)NCC2CCCO2)sc2nc3n(c(=O)c12)CCC3 (stereo unspecified) | 105 | · | · | -1
COc1ccc(-c2nc(SCC(=O)N3CCC(C)CC3)n[nH]2)cc1 | 108 | 114 | 103 | ·
COc1ccc(NC(=O)Cn2ncc3c([nH]c4ccccc43)c2=O)cc1Cl | 103 | 117 | 88 | ·
CCN(CC)C(=O)c1ccc(OC(C)=O)cc1 | · | 120 | 86 | -3
O=C(Nc1ccc(F)cc1)c1nnc(C(=O)N2CCC(C(=O)NCc3cccnc3)CC2)s1 | 104 | · | · | -10
CC(=O)Nc1ccc(NC(=O)c2c(-c3ccccc3)noc2C)cc1 | 100 | 100 | 91 | 5
CC1(C)NC(=O)N(CC(O)CN(Cc2ccccc2)Cc2ccccc2)C1=O (stereo unspecified) | 97 | 108 | 81 | -12
CC1CN(C(=O)CSc2nnc(NC(=O)Nc3ccccc3)s2)CC(C)O1 (stereo unspecified) | 107 | 107 | 87 | 5
O=C(Cn1nc(-c2ccc(Cl)cc2)c2ccccc2c1=O)N1CCN(c2ccccc2)CC1 | 108 | · | · | 9
CCc1ccc(NC(=O)CSc2c(C)cnc3c2c(=O)n(C)c(=O)n3C)cc1 | 103 | 139 | 92 | ·
O=C(O)c1ccc(C(=O)NCC2CCCO2)c(C(=O)O)c1 (stereo unspecified) | 107 | 103 | 93 | -7
COCCn1c(=O)[nH]c(=O)c2c(C)cc(-c3ccc(F)cc3)nc21 | · | 78 | 93 | -66
COc1cccc(NC(=O)C2CCCN(c3ncnc4onc(C)c34)C2)c1 (stereo unspecified) | 99 | 88 | 79 | ·
Cc1ccc(NC(=O)c2[nH]nc3c2COc2ccccc2-3)c(C)c1 | 104 | 105 | 92 | 16
Cc1cc(C)n2nc(CN(c3cccc(Cl)c3)S(=O)(=O)c3ccccc3)nc2n1 | 105 | · | · | -31
C=CCNC(=O)c1csc2c1CCCC2 | 104 | 98 | 97 | -24
CC(C)Sc1ncnc2c1cnn2-c1ccccc1 | 103 | 112 | 87 | -10
CC(Oc1ccccc1F)C(=O)N1CCC(c2nc3ccccc3o2)CC1 (stereo unspecified) | 101 | 94 | 49 | -15
CC(N)c1nc(-c2cccnc2)no1 (stereo unspecified) | 103 | 104 | 79 | -23
Cc1ccc(C)c(N2CCN(C3=C(c4ccccc4)C(=O)c4ccccc43)CC2)c1 | 102 | 113 | 86 | -6
O=S(=O)(Nc1ccc2[nH]ccc2c1)c1cccs1 | 104 | 75 | 82 | -14
Cc1ccc(S(=O)(=O)NCCc2nnc3ccc(SCC(=O)Nc4ccc(F)cc4F)nn23)cc1 | 109 | 133 | 87 | ·
CCOc1ccccc1C(=O)Nc1cccc2ccc(C)nc12 | 106 | 104 | 73 | -14
CCOC(=O)C1=C(C)NC2=C(C(=O)CC(c3ccc(OC)c(OC)c3)C2)C1c1ccc(SC)cc1 (stereo unspecified) | 104 | · | · | 0
CN(Cc1ccccc1)C(=O)Cn1c(=O)oc2cc(S(=O)(=O)NCc3ccccc3)ccc21 | 104 | 96 | 84 | -4

# Some values from the results shown.
# For HCMV UL50-53 inh, CN(CCNC(=O)CCSCc1cnn(-c2ccccc2)c1-n1cccc1)Cc1ccccc1 has -18
# For GIV Gai3 FP, COc1ccc(NC(=S)NC(C)(C)C)cc1OC has 104
# For HCMV UL50-53 inh, CC(=O)N/C(=C\c1sc2ccccc2c1C)C(=O)O has -42
# For HCMV UL50-53 inh, O=C(O)c1ccccc1OCC1CCCO1 (stereo unspecified) has -21
# For GIV Gai3 FP, COc1ccc(NC(=O)Cn2ncc3c([nH]c4ccccc43)c2=O)cc1Cl has 103
# For GIV Gai3 FP, O=C(Cn1nc(-c2ccc(Cl)cc2)c2ccccc2c1=O)N1CCN(c2ccccc2)CC1 has 108

# Additional records.
compound | GIV Gai3 FP | Sa growth 42C | Sa growth 42C second temp | HCMV UL50-53 inh
c1ccc(-n2cccc2CNC2CCCCC2)cc1 | · | 98 | 88 | -13
CC(C)(C)c1ccc(Oc2ncnc3c2oc2ccccc23)cc1 | · | 76 | 101 | -4
O=C(NCc1ccccc1Br)c1ccc(-n2cnc3cccnc32)cc1 | 109 | 123 | 97 | ·
COc1ccc(Br)cc1CN(C)CC(O)COCc1ccc2c(c1)OCO2 (stereo unspecified) | · | 100 | 93 | -1
c1ccc(CN2CCc3nc(N4CCCC4)ncc3C2)cc1 | 109 | 110 | 80 | -13
CCn1c2c(=O)[nH]c(=O)n(C)c2n2c(-c3ccc(OC)cc3)nnc12 | 102 | · | · | -25
CCCCN(C(=O)c1cccs1)c1nnc(-c2cc(OC)cc(OC)c2)s1 | 107 | 101 | 90 | -8

# Screening data as filed in PubChem BioAssay.

# Compounds were not picked by outcome; about 0.83% have a hit in one of these screens.
